# Compound activity from PubChem.
# NPYLR7 ag = activates Aedes aegypti NPYLR7 receptor; HEK293T NPYLR7/Galpha15, GCaMP6s calcium fluorescence; activation, % at 10 µM; 270,000 tested, 0.15% active; in the data active = activation above about 40%;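 note: 0% = vehicle and 100% = reference agonist at the receptor; some compounds past the cut are filed as inactive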
# NPYLR7 ag max-min = second read-out of NPYLR7 ag, no call of its own (marks repeat the call); activation, %; measured here: Max-Min RFU normalised activation; some inactives read as strong as hits;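 span of the calcium signal over five minutes; 0% = vehicle and 100% = native peptide agonist; compound fluorescence can raise it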
# The depositor's hits bear a star; & = joins results of further samples.
SMILES,NPYLR7 ag,NPYLR7 ag max-min
O=C1CCC2(CCN1)CCN(Cc1cnc(C3CCCCC3)nc1)CC2,4,1
COc1cccc2c1N(Cc1cn3ccsc3n1)CCC2,-5,-6
CCn1nc(C)cc1C(=O)N1CCc2c([nH]c3ccccc23)C1c1cc(F)ccc1F (stereo unspecified),2&-2,-4&-4
CCc1nc2ccc(C(=O)Nc3ccc(C(N)=O)cc3)cn2c1N(C)Cc1nccn1C,-3,-8
O=C(O)CN1C(=O)C2CC=C(Cl)CC2C1=O (stereo unspecified),8,5
COc1ccc(OC)c(/C=C2N=C(/C=C/c3ccccc3)OC/2=O)c1,-1,-4
Cc1nn2cc(C(=O)c3cccs3)nnc2c1-c1ccccc1,8,6
CCSc1ncccc1C(=O)N1CCN(c2ccc(NC(=O)COC)cn2)CC1,0,1
Cc1ccccc1C1c2ccsc2CCN1CCC(=O)N1CCN(S(=O)(=O)c2ccc(Cl)cc2)C(C)C1 (stereo unspecified),9,-5
CS(=O)(=O)Oc1ccc(CN(Cc2ccco2)C(=O)c2cccs2)cc1,3,10
Cc1c(C#N)c(N)nc(SCC(N)=O)c1C#N,6,6
CCCN(C1=NC2CS(=O)(=O)CC2S1)c1ccc(Cl)cc1 (stereo unspecified),9,4
COc1ccc(NC(=O)N2CCCC(Nc3ccc(C)c(C)c3)C2)c(OC)c1 (stereo unspecified),15,6
COC(=O)c1cc(C(=O)OC(C)(C)C)n(-c2ccccc2)n1,8,3
CC1CCCCC1NC(=O)C1CCC(=O)N1C(C)C (stereo unspecified),7,2
CC(C)(C)c1nc2sc3c(c2c(=O)o1)CCCC3,-4,-12
CC(=O)N1N=C(c2ccccc2Cl)OC1C(=O)N[C@@H](Cc1cnc[nH]1)C(N)=O (stereo partly specified),12,7
O=C(CN(C(=O)Nc1ccccc1C(F)(F)F)C1CC1)N(CCc1c[nH]c2ccccc12)Cc1ccc(Cl)c(Cl)c1,16,23
COc1ccc(/C=C2/SC(=O)N(CC(=O)NN3CCN(C)CC3)C2=O)cc1OC,-3,-7
Cc1nn2c3ccccc3n(CCOc3ccccc3)c2nc1=O,16,7
Cn1c(=O)c2c(nc3n2CC(c2ccc(Cl)cc2)=NN3Cc2ccccc2F)n(C)c1=O,3,6
NC(=O)c1csc(C(=O)N(CC2CCC2)c2ccccc2)c1,1&2,1&0
O=C1C2C3C=CC(O3)C2C(=O)N1c1ccc(F)cc1 (stereo unspecified),-11,-17
CCSc1nc(CC(=O)N(C)CCc2scnc2C)cs1,6,4
CCc1ccc(C(=O)Nc2ccc(N3CCCC3)c(C(=O)NC(C)C)c2)cc1,-4,-1
# Continuation.
SMILES,NPYLR7 ag,NPYLR7 ag max-min
O=C(c1cc(-c2ccc(F)cc2)nn1-c1ccccc1Cl)N1CCC(Cc2ccccc2)CC1,-1,2
CC(N)CCCC(C)(C)O (stereo unspecified),18&-8&-1,13&-12&-6
O=C(c1ccncc1)N1CCC(n2c(=O)oc3ccc(F)cc32)CC1,-6,6
CCCc1c(C(=O)N2CCN(C(C)=O)CC2)cnn1-c1ccc(OC)cc1,15,25
CC(C)N(CC(=O)Nc1nc(CC(=O)N2CCN(c3cccc(C(F)(F)F)c3)CC2)cs1)C(=O)c1ccccc1,-9,1
Cn1c(NCCO)nc2c1c(=O)[nH]c(=O)n2C,4,0
NC(=O)c1oc2ccccc2c1NC(=O)c1cccc(OC(F)F)c1,4,2
O=C(O)C=CC(=O)N1CCCCC1,0,5
O=C(O)C1CC2(CCNCC2)CN1Cc1nc2ccccc2[nH]1 (stereo unspecified),-3,-12
Cc1ccc(C)c(-c2cn3c(C(=O)N(C)Cc4nc(C)no4)csc3n2)c1,4,2
CCCS(=O)(=O)c1c(S(=O)(=O)CCC)c2c3ccccc3ccn2c1C(=O)OC,13,11
COc1ccc(C(=O)N2CCCC2)c(OC2CCN(C(=O)C3=CCCC3)CC2)c1,0,-3
CC1CN(Cc2nc3c(c(=O)n(C)c(=O)n3C)n2CCCc2ccccc2)CC(C)O1 (stereo unspecified),1,22
Cc1ccc(-c2cc(C(F)(F)F)n3ncc(C(=O)Nc4cc(C)on4)c3n2)cc1,1,-2
CC(Oc1ncnc2ccccc12)c1ccccc1Cl (stereo unspecified),0,-4
O=c1[nH]c(SCc2ccc(Cl)cc2)nc2c1cnn2CCO,6,3
Brc1ccc(C2=NN(c3nc(-c4ccccc4)c4ccccc4n3)C(c3ccc(Br)cc3)C2)cc1 (stereo unspecified),26,33
CCCC(=O)NCC(=O)N1CCCC1c1nncn1CC(C)C (stereo unspecified),4,3
CC(=O)N(c1ccccc1)c1nc(CN2CCN(CC(=O)NC3CC3)CC2)cs1,5,3
CCC(=O)Nc1c(-c2ccc(OC)cc2)nc2cc(C)ccn12,-6,3
COc1cccc(-c2cccc(-c3ccc(NC(=O)CSc4ccccc4)cc3)n2)c1,-6,-6
CCC(=O)Nc1nc2ccc(NC(C)=O)cc2s1,-1,-4
COc1ccc(CCN(C)S(=O)(=O)c2ccc(OC)c(N3CCN(C(=O)CCCCCCl)CC3)c2)cc1OC,19,16
O=C(c1ccc(Cl)cc1)C1CCN(C(=O)c2cccnc2N2CCCCC2)CC1,-6,-5
O=C(CC1C[C@@H]2CC[C@H]1C2)N1CCC2(CC1)OCc1ccccc12 (stereo partly specified),-4,1

# A run of entries taken from the entries so far:
SMILES,NPYLR7 ag,NPYLR7 ag max-min
NC(=O)c1oc2ccccc2c1NC(=O)c1cccc(OC(F)F)c1,4,2
O=C(O)C=CC(=O)N1CCCCC1,0,5
O=C(O)C1CC2(CCNCC2)CN1Cc1nc2ccccc2[nH]1 (stereo unspecified),-3,-12
Cc1ccc(C)c(-c2cn3c(C(=O)N(C)Cc4nc(C)no4)csc3n2)c1,4,2
CCCS(=O)(=O)c1c(S(=O)(=O)CCC)c2c3ccccc3ccn2c1C(=O)OC,13,11
COc1ccc(C(=O)N2CCCC2)c(OC2CCN(C(=O)C3=CCCC3)CC2)c1,0,-3
CC1CN(Cc2nc3c(c(=O)n(C)c(=O)n3C)n2CCCc2ccccc2)CC(C)O1 (stereo unspecified),1,22
Cc1ccc(-c2cc(C(F)(F)F)n3ncc(C(=O)Nc4cc(C)on4)c3n2)cc1,1,-2
CC(Oc1ncnc2ccccc12)c1ccccc1Cl (stereo unspecified),0,-4
O=c1[nH]c(SCc2ccc(Cl)cc2)nc2c1cnn2CCO,6,3
Brc1ccc(C2=NN(c3nc(-c4ccccc4)c4ccccc4n3)C(c3ccc(Br)cc3)C2)cc1 (stereo unspecified),26,33
CCCC(=O)NCC(=O)N1CCCC1c1nncn1CC(C)C (stereo unspecified),4,3
CC(=O)N(c1ccccc1)c1nc(CN2CCN(CC(=O)NC3CC3)CC2)cs1,5,3
CCC(=O)Nc1c(-c2ccc(OC)cc2)nc2cc(C)ccn12,-6,3
COc1cccc(-c2cccc(-c3ccc(NC(=O)CSc4ccccc4)cc3)n2)c1,-6,-6
CCC(=O)Nc1nc2ccc(NC(C)=O)cc2s1,-1,-4
COc1ccc(CCN(C)S(=O)(=O)c2ccc(OC)c(N3CCN(C(=O)CCCCCCl)CC3)c2)cc1OC,19,16

# (more compounds)
SMILES,NPYLR7 ag,NPYLR7 ag max-min
Cc1cccc(NS(=O)(=O)CCc2ccccc2)n1,-6,-11
CCCCCN1CCc2ccccc2OCC(=O)N(C)[C@@H](Cc2ccc(OCCO)cc2)C1=O,3,11
COCCNC(=O)C1(C)CCCN(Cc2ccc(OCc3ccccc3)cc2)C1 (stereo unspecified),6,4
O=c1c2cnc3nc(-c4ccncc4)nn3c2ccn1CCc1c[nH]c2ccc(Cl)cc12,2,5
O=C(O)c1cc(NCc2ccccc2)nc2ccccc12,-1,-4
O=c1[nH]cnc2c1nnn2-c1ccc(OC(F)(F)F)cc1,-6,-5
Cc1ccc(OCC2CN(C(=O)C(C)NC(=O)OCc3ccccc3)CCO2)cc1 (stereo unspecified),-11,-15
N#Cc1ccc(COC(=O)c2ccc3c(=O)[nH]c(CN4CCOCC4)nc3c2)cc1,1,0
COc1ccccc1CCn1c2c(c(=S)[nH]c1=O)CCC2,1,-2
O=C(Nc1ccc(SCc2ccc(F)cc2)nn1)C1CC1,-4,-6
Cc1c(O)c(CN2CCCCC2)cc2c1oc(=O)c1ccccc12,-1,-1
O=C1NCC(=O)N2CCN(C(=O)c3ccc(CN4CCCCC4)cc3)CC12 (stereo unspecified),-1,-8
Cc1ccn(CC(=O)NCCc2c(F)cccc2F)c(=O)c1,1,6
COC(=O)Cc1cc(=O)[nH]c(N=C(NC(=O)c2ccccc2)Nc2ccc(Oc3ccccc3)cc2)n1,-11,-15
O=C(N[C@H]1CCCC[C@H]1C(=O)NNc1ccccc1C(F)(F)F)c1ccccc1,7,7
Cc1nc(CCNC(=O)c2ccc(=O)n(C)c2)sc1C,7,3
O=C(NCCCOC1CCCC1)Nc1cnn(CC(F)F)c1,-2,-5
COc1ccccc1-n1c(-c2ccc(Cl)cc2)cc(C(=O)NCCN2CCCC2)c1C,0,11
Cn1ccc(C(=O)N(Cc2ccccc2)c2ccccc2C#N)cc1=O,8,1
CC(C)Cc1nnc(-c2cc3ccccc3n2CC(=O)NCc2ccccc2)o1,-1,-1
Cc1cc(C(=O)Cn2cc(C(F)(F)F)cc(Cl)c2=O)c(C)n1-c1nccs1,2,1
NC(Cc1ccc(C(F)(F)F)cc1)c1csc(Nc2ccccn2)n1 (stereo unspecified),7,8
COC(=O)c1ccc(CN2C[C@@H]3C(C)(C)COc4ccc(OC)cc4[C@]3(CO)C2)cc1,2,12
CC(NS(=O)(=O)c1ccc2c(c1)n(C)c(=O)n2C)c1cccc(F)c1 (stereo unspecified),5,4
O=C(NCc1ccccn1)N1CCCC(C2OCCO2)C1 (stereo unspecified),4,3
# Next part
SMILES,NPYLR7 ag,NPYLR7 ag max-min
COCC(C)OC(=O)c1sccc1Br (stereo unspecified),-3,-5
CC(=O)Nc1ccc(S(=O)(=O)NCc2ccc3[nH]c(C)c(C)c3c2)cc1,-1,-5
CC1CN(C)c2ccccc2N(C(=O)Cn2ccccc2=O)C1 (stereo unspecified),-1,54
COc1ccc(Nc2cc(C)nc(-n3cc([N+](=O)[O-])cn3)n2)cc1,3,3
Cn1c(COc2ccccc2)nc2ccccc21,-1,-1
Cc1ccc(-c2cc(C(F)(F)F)nn2-c2ccc(S(N)(=O)=O)cc2)cc1,-15&0,-21&-4
CCOC(=O)C1(C)CCCCCN1C(=O)c1ccc(SC(F)(F)F)cc1 (stereo unspecified),1,-2
COCCCN(CC(=O)N(Cc1ccc(F)cc1)Cc1ccc(C)s1)C(=O)CCc1ccccc1,9,10
O[C@H]1CC[C@@H]2C[C@@H]1[C@@H](O)CN2CC(c1ccccc1)c1ccccc1,4,9
CN(Cc1ccccc1C(=O)O)C1CC(C)(C)NC(C)(C)C1,-2,0
CCOC(=O)c1c(C)[nH]c(C(=O)COC(=O)c2cc(C)oc2C)c1C,9,13
CCCc1ccc(S(=O)(=O)Nc2cc(Cl)ccc2C(=O)NCc2ccccc2)cc1,23,25
CCc1[nH]c2c(CNC(=O)Cc3ccn(C)c3)cc(C)cc2c1C,8,6
Cc1ccccc1C(=O)Nc1ccnn1C1CCN(Cc2ccc(F)cc2F)CC1,-3,-2
Cc1ccc(C(=O)Oc2ccccc2C(=S)N2CCOCC2)cc1,2,1
Cc1ccc(OCC(=O)NNC(=O)COc2cc(C)c(Cl)c(C)c2)cc1,-2,-5
COCC(C)NC(=O)NCc1cccc(COC(C)(C)C)c1 (stereo unspecified),2,0
O=c1c(CN(Cc2ccccn2)CC2CCCO2)coc2ccccc12 (stereo unspecified),7,3
CC(=O)Cn1c(CN2CCC(C(N)=O)CC2)nc2c1c(=O)n(C)c(=O)n2C,1,14
Cc1ccccc1-c1ncc(CN2CCn3nc(C(=O)NC4CC4)cc3C2)cn1,-1,-2
COc1cccc(C(=O)NCc2nnc3ccc(C(F)(F)F)cn23)c1OC,3,-1
COc1ccc2nc(-c3ccc(OC)c(NC(=O)c4ccco4)c3)cn2n1,-9,-14
O=C1OCCN1CCn1ccnc1-c1cnc(C2CCCCC2)nc1,-1,-1
CC(C)c1ccc(CCNC(=O)N2CCN(S(=O)(=O)c3ccccc3)CC2)cc1,1,14
O=C(c1ccccc1)N1N=C(c2cccnc2)CC1(O)C(F)(F)F (stereo unspecified),-3,-6
# Next part:
SMILES,NPYLR7 ag,NPYLR7 ag max-min
c1ccn2c(Sc3ncnc4sc5c(c34)CCCC5)nnc2c1,4,4
CC(=O)c1ccc(NC(=O)CN2C(=O)c3ccccc3C2=O)cc1,-6,-8
COc1ccc(S(=O)(=O)N2CCc3nc(Cc4ccccc4OC)[nH]c(=O)c3C2)cc1,-5,7
Cc1c(C(=O)N2CCN(C(=O)Nc3ccc(Cl)cc3)CC2)cc(-c2ccc(F)cc2)n1-c1ccccc1,-13,-13
COc1ccccc1NC(=O)N1CCN(c2c3c(nc4ncnn24)CCCC3)CC1,-1,-6
CCOC(=O)Nc1c(C(=O)Nc2ccc(F)c(Cl)c2)oc2ccccc12,-3,5
N#Cc1c(Cl)nsc1NCC(O)c1ccc(F)cc1 (stereo unspecified),-24,-21
Cc1nnc(CN(C)CCOc2cccc(Cl)c2)o1,6,5
Cc1cc(C)n(CCC(=O)Nc2cc(Cl)cc(Cl)c2)n1,3,8
Cc1c(CNC(C)c2cn3ccsc3n2)c2ccccc2n1CC(N)=O (stereo unspecified),5,4
O=C(Cc1cccs1)N[C@@H]1CC[C@@H]2C[C@@H]1[C@@H](O)CO2,5,14
Cc1ccc(Cl)c(OC(C)C(=O)N2CCNC(=O)C2C)c1 (stereo unspecified),-21,-23
CN(Cc1cc2cc(F)ccc2[nH]1)C(=O)C1(Cn2cccn2)CC1,-5,-5
O=C(Nc1ccc2c(c1)OCO2)C(C1CCCC1)N1CCN(C(=O)c2cccc(Br)c2)CC1 (stereo unspecified),7,10

# Only part of the results is shown. The share of hits here may be higher or lower than overall.
